Bioassay records from PubChem.
D2 ag = human D2 receptor agonism in beta-arrestin assay; P14416; DiscoveRx PathHunter D2 beta-arrestin, luminescence, 90 min; 100% = 57 uM dopamine signal; activation, % (no concentration beside the values); actives 0.084% (n = 360,000); AID 624465; in the data active = activation above about 40%; inconclusive = about 15% to 40%; inactive = below about 15%; note: compound concentration not given in the record; the text of the record calls up to 30% inactive
Target sequence (P14416 whole entry, looked up): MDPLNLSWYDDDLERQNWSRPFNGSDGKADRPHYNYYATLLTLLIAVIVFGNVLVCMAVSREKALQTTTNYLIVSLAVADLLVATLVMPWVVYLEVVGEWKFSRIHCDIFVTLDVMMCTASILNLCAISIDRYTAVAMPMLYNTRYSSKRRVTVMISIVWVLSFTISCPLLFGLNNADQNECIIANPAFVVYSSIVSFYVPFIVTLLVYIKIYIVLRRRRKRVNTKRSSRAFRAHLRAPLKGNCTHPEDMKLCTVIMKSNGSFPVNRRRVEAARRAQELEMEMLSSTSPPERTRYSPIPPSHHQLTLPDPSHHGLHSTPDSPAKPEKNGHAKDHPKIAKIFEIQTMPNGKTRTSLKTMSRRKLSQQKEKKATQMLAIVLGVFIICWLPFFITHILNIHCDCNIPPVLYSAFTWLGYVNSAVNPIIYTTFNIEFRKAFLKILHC
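DiscoveRx PathHunter D2 beta-arrestin cells (2,100/well) attached overnight, then compound-stimulated 90 min at 37 C in HBSS/10 mM HEPES/0.1% Tween-20 buffer; beta-galactosidase complementation read by luminescence after 1 h at ambient temperature. Dopamine 57 uM final (EC100) as control.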
gsp ag = activates gsp, the McCune-Albright syndrome mutation; gsp mutant cells, cAMP HTRF, 30 min; control for the full effect not named in the record; Potency, µM (titrated, usually from 76.9 µM), for inactives: at the highest dose activation (cAMP increase), hits mostly activators; actives 0.13% (n = 340,000); active = well fitted activation curve with a large enough effect; inconclusive = small, poorly fitted or top-dose-only effect, or another doubt; inactive = no such curve, though single readings can be large or run the other way; cell line not stated here;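 note: phosphodiesterase inhibitor Ro 20-1724 added with compounds to block cAMP breakdown; potency is the fitted concentration of half-maximal effect; nearly all actives have a fitted effect of over 60% in size; about a fifth of the inactives were tested at one dose only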
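Cells stably selected in G418 were plated at 2000/well, grown 16-24 hr, then given compounds in DMSO with the PDE inhibitor […] (300 uM solution added) for 30 min at 37C; cAMP was read by HTRF.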
PINK1 modulator = PINK1 expression modulation; PINK1 immunofluorescence, high-content cytometry, 24 h; Potency, µM (series often up to 76.6 µM), inactives show at the highest dose activation (PINK1 increase), most hits filed as activators; actives 0.2% (n = 410,000); active = well fitted activation curve with a large enough effect; inconclusive = small, poorly fitted or top-dose-only effect; inactive = flat fitted curve, though single readings scatter; cell line not stated here;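 note: potency is the fitted concentration of half-maximal effect; % of control where 0% means no effect; nearly all actives have a fitted effect of over 65% in size; a mitochondrial uncoupler was the plate control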
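PINK1 protein level read as immunofluorescence by microplate cytometer in a fixed, stained stable cell line after 24 h exposure to five compound concentrations, with CCCP as control.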
gsp antagonist = antagonizes gsp, the McCune-Albright syndrome mutation. gsp-mutant cells, cAMP HTRF, 30 min; control for the full effect not named in the record. Potency, µM (titrated, usually from 76.9 µM), inactives show at the highest dose activity change, negative = inhibition, usual class: inhibitors. actives 0.4% (n = 340,000). AID 624288; active = falling curve of any shape with a large fitted effect; inconclusive = falling curve, mostly with a smaller effect; inactive = flat or rising curve; cell line not stated here;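 note: intracellular cAMP measured with PDE inhibitor Ro 20-1724 present during compound exposure; potency is the fitted concentration of half-maximal effect; % is set by controls: 0 for no effect and ±100 for the full control effect; nearly all actives have a fitted effect of over 65% in size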
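Measurement of cellular cAMP by homogeneous time-resolved fluorescence following a 30 min compound exposure at 37C. The PDE inhibitor […] was present throughout; the assay buffer was DPBS with 0.05% BSA and 0.005% Tween 20.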
Sfp inh = inhibitors of Bacillus subtilis Sfp phosphopantetheinyl transferase; Q9F4F7; Biochemical Sfp PPTase activity, qHTS; Potency, µM, inactives show max response, negative = inhibition, most hits filed as inhibitors; actives 3.5% (n = 310,000); AID 1490; active = well fitted inhibition curve with a large enough effect; inconclusive = small, poorly fitted or top-dose-only effect, or another doubt; inactive = no such curve, though single readings can be large or run the other way;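 note: the enzyme is Sfp with the accession as filed and its product quenches rhodamine fluorescence; potency is the fitted concentration of half-maximal effect; 0% = enzyme reaction without inhibitor and -100% = no enzyme wells; top concentration of the series not given in the record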
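With Hepes-Na pH 7.6 buffer containing 10 mM MgCl2, Sfp (15 nM) modified BHQ-2-YbbR (12.5 uM) using rhodamine-CoA (5 uM). Two reads 30 minutes apart at 525/598 nm yielded each well's rate.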
Menin-MLL FL inh = inhibitors of human menin-MLL interaction, wild-type MLL peptide | Fluorescence polarization, fluorescein-MLL peptide displacement from menin | FP activity change, % at 61.4 µM | 290,000 tested, under 10 active; inconclusive = falling polarisation curve, or a change in total fluorescence; inactive = total fluorescence flat and polarisation flat or rising; no compound was filed as active; the % refers to the polarisation; negative = inhibition;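 note: % of control where 0% means no effect; inhibitors lower the polarisation; unlabelled MLL peptide was the positive control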
ClpP mod = qHTS Assay for Activators of ClpP. ATP-dependent Clp protease proteolytic subunit (Bacillus subtilis (strain 168)), P80244. purified B. subtilis ClpP, FRET peptide cleavage, 20 min. Potency, µM (titrated, usually from 57.5 µM), for the others: top-dose activity change, negative = active. actives 1.9% (n = 340,000). AID 651965, 2013; active = well fitted falling curve with a large enough effect; inconclusive = small, poorly fitted or top-dose-only effect; inactive = no such curve, though single readings can be large or run the other way; note: potency is the fitted concentration of half-maximal effect; the source files actives as falling curves though it sought activators and does not explain the sign; nearly all actives have a fitted effect of over 65% in size; many hits overshoot -100%
Target sequence (P80244 whole entry, looked up): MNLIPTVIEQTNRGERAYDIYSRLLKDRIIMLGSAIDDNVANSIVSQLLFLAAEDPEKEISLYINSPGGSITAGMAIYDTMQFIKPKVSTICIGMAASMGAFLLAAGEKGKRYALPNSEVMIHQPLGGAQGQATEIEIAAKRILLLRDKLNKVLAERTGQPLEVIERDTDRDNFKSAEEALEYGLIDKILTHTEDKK
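ClpP 10 microg/mL final, pH 8 Tris/KCl buffer with BSA, glycerol, Tween-20; compound pinned in; FRET-FV substrate; RT 20 min; Ex320/Em430; ΔFRET vs ADEP 5.8 microM, DMSO, no enzyme.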
Numbers without * were called inactive; ? = inconclusive; . = not tested or not shown; & = joins results of further samples; [ ] = dose if it differs, or a comment.

Below each SMILES – D2 ag, gsp ag, PINK1 modulator, gsp antagonist, Sfp inh, Menin-MLL FL inh, ClpP mod
- COc1ccc(CC(=S)N2CCOCC2)cc1
→ -2.6, 8.5%, 2.2%, 13.4%, 15.8µM*, 4.5, -9.8%
- O=c1onc(-c2cccs2)n1Cc1ccccc1
→ -0.4, -39.4%[inhibitor], -0.5%, 4.7%, 13.3%, 2.3, -0.1%
- CCOC(=O)N1CCN(C(=O)CSc2nnc(-c3ccccc3OC)o2)CC1
→ -0.3, -10.9%, -0.3%, -5.9%, 13.2%, 3.7, -3.6%
- CCn1c(SCC(=O)c2[nH]c(C)c(C(C)=O)c2C)nnc1-c1cccs1
→ 0.0, 22.3%, -1.6%, ?, 5.2%, 3.9, -3.5%
- Cc1ccc(C(=O)N/C(=C/c2ccco2)C(=O)Nc2cccc(C(=O)O)c2)cc1
→ -1.9, 11.0%, -0.5%, 9.1%, 44.7µM*, 6.0, 0.9%
- O=C(CCCC(=O)N(c1ccc(F)cc1)C(C(=O)NC1CCCC1)c1ccc(O)cc1)Nc1ccccn1 (centres undefined)
→ -0.1, 15.1%, 2.4%, -4.4%, 14.6%, 0.4, .
- O=S(=O)(Nc1ccc2c(c1)nc1n2CCN(Cc2ccccc2)C1)c1ccccc1
→ 0.9, -26.2%, 0.7%, -12.7%, -10.7%, -0.4, -27.9%
- O=S(=O)(c1cccc(F)c1)N1CCN(C(=S)NCC2CCCO2)CC1 (centres undefined)
→ -1.9, -7.0%, 2.9%, 1.5%, 1.9%, 0.0, -1.4%
- O=C(COC(=O)CCc1ccccc1)NCc1ccccc1
→ 2.4, -40.5%, 1.0%, 5.0%, ., ., 0.4%
- CC(=O)NCCn1c(SCc2ccccc2C)nc2ccccc2c1=O
→ -2.6, 17.1%, ., 2.7%, -19.6%, -1.5, -1.0%
- N/C(=N\OC(=O)c1ccccc1Br)c1cccc([N+](=O)[O-])c1
→ ?, -6.4%, 1.7%, -5.3%, 8.5%, -1.9, -0.1%
- COCCNC(=O)C1CCCN(C(=O)c2sccc2C)CC1 (centres undefined)
→ -2.6, ., 1.0%, ., ., ., 2.3%
- CCc1ccc(/C=C2\SC(=S)N(CCCC(=O)Nc3ccc(C(=O)O)cc3)C2=O)cc1
→ -2.7, ?, 3.4%, -28.1%, -22.9%, ., 1.7%
- COCCOC(=O)C1=C(C)N(c2ccccc2)C(=O)NC1c1cccc([N+](=O)[O-])c1 (centres undefined)
→ 1.1, -2.3%, 1.7%, -0.4%, -6.7%, -0.3, -0.4%
- Cc1ccc(S(=O)(=O)NCCC(=O)NCc2ccccc2)cc1
→ 0.4, -11.0%, -0.1%[38.3 µM], 7.5%, 16.3%, 1.7, 0.2%
- COc1cccc(CN2CCN(S(=O)(=O)c3ccc(NC(C)=O)cc3)CC2)c1OC
→ 1.1, -4.4%[15.4 µM], 1.8%, 5.1%, 18.6%, -2.6, .
- Cc1ccc(-n2c(O)c(C=NCc3ccccn3)c3ccccc3c2=O)cc1C
→ -4.0, -3.2%, 1.9%, -18.3%, 7.0%, 2.7, -7.9%
- CC(=O)N1CC2([N+](=O)[O-])CN(C(C)=O)CC([N+](=O)[O-])(C1)C2(C)C
→ 2.0, -60.6%[inhibitor], -0.9%, 10.8%, -4.1%, -0.1, -0.9%
- CCOc1ccc2nc(NC(=O)CN3CCN(C)CC3)sc2c1
→ 0.1, ?, -0.6%, -8.8%, -0.6%, 7.6, -7.6%
- O=[N+]([O-])c1c(NCCCO)cc(Sc2ccc(Cl)cc2)c2nonc12
→ -1.6, 13.6%, -0.5%, 10.5%, -19.5%, 6.9, -1.8%
- C=CCC(C(=O)Oc1c(C(C)(C)C)cc(C)cc1C(C)(C)C)c1ccccc1 (centres undefined)
→ -2.2, 33.6%, 7.6%, 1.3%, ., ., -1.1%
- COCCN(Cc1ccccc1)C(=O)C1CCN(S(=O)(=O)c2ccc(OC)c(OC)c2)CC1
→ -2.0, -37.6%[inhibitor], -0.4%, -10.5%, ., ., -2.0%
- CN(Cc1ccccc1)C(=O)COC(=O)c1ccc(=O)n(Cc2ccccc2)n1
→ 1.8, 14.6%, -2.8%, -9.5%, ., ., 1.7%
- COc1ccc(C(=O)N2CCCc3ccccc32)cc1OC
→ -1.5, 17.9%[15.4 µM], 1.8%, 3.2%, 4.1%, -1.5, .
- NC(=O)N/N=C(/CCCCCC/C(=N\NC(N)=O)c1ccccc1)c1ccccc1
→ 2.1, 18.1%, 0.0%, 1.3%, 16.2%, 4.3, .
- N#C/C(=C(/O)CN1CCCCC1)c1nc(-c2ccc(Cl)cc2)cs1
→ -0.9, -0.7%, 7.7%[38.3 µM], -3.9%, -1.0%, 2.9, 1.3%
- COC(=O)c1sc2nc(-c3ccccc3)nc(N3CCN(C)CC3)c2c1C
→ -7.2, 9.4%[15.4 µM], -1.4%, -7.7%, 50.1µM*, -1.0, -15.8%
- O=C(NCCCN1CCOCC1)c1ccc(Br)cc1
→ -1.9, -2.5%, -1.8%, 8.7%, -11.3%, 0.5, -2.0%
- O=C(NCCO)c1ccc(-c2nnc(Nc3ccc(O)cc3)c3ccccc23)cc1
→ 6.4, 10.5%, 1.0%, 4.6%, 7.1%, 9.8, -1.1%
- O=C(Nc1ccncc1)c1c(Cl)cccc1Cl
→ -2.1, ?, 0.2%, 8.5%, 11.9%, 1.9, 3.1%
- CSc1sc(C(=O)Nc2ccc(F)cc2F)c2c1C=CCC2
→ -3.8, -6.8%[15.4 µM], 4.0%, -21.4%, ?, 6.6, .
- COc1ccc(C(=O)NCc2nnc(SCC(=O)N3CCC(C)CC3)o2)cc1
→ -3.5, 5.7%, -4.5%, -0.9%, -1.1%, -2.0, 0.5%
- O=C(CN1CCNCC1)Nc1ccc(Oc2ccccc2)cc1
→ -3.1, -0.4%, 4.6%[38.3 µM], 14.7%, -4.9%, 0.7, -0.3%
- CCC1CCCCN1C(=S)NC(=O)c1ccco1 (centres undefined)
→ -2.6, 25.5%, 1.0%, 11.3%, ., ., 1.7%
- CCOc1ccc(C(=O)N(CC)CC(=O)Nc2ccc3c(c2)OCCO3)cc1OCC
→ -1.3, -20.0%, -0.6%, 9.8%, ., ., -0.2%
- COc1ccc(/C(O)=C2/C(=O)C(=O)N(c3ccccn3)C2c2ccc(OC)c(OC)c2)cc1 (centres undefined)
→ -5.6, -4.4%[15.4 µM], -0.3%, -1.7%, 7.7%, -2.5, .
- COc1ccccc1N1CCN(C(=O)CSc2ccccc2)CC1
→ -2.6, -44.6%[inhibitor], 0.7%, -5.1%, 9.2%, 4.0, 0.9%
- C/C(=N\NC(=O)c1cc(C)nc2ccccc12)c1ccccn1
→ -7.6, -5.3%, 0.5%, 6.8%, ., ., 1.2%
- COc1cc(/C=C(\C#N)C(=O)Nc2ccccc2C(=O)O)cc(Cl)c1OC
→ -6.0, -8.4%[15.4 µM], 1.5%, ., 5.9%, -1.2, .
- O=C1CSC2(N1)C1CC3CC(C1)CC2C3 (centres undefined)
→ -1.3, -8.3%[15.4 µM], -1.5%, 14.1%, -2.4%, 5.0, .
- O=C(NCCCN1CCCC1=O)c1cc(-c2ccc3c(c2)OCO3)nc2ccccc12
→ 2.0, -8.2%[15.4 µM], 0.6%, -0.9%, 19.6%, -0.9, -0.1%
- O=C(Nc1ncc(Cc2ccccc2Cl)s1)C1CCCO1 (centres undefined)
→ -1.8, -77.7%[inhibitor], 1.6%[38.3 µM], 4.2%, -7.6%, -0.3, -1.5%
- CC1CC(C)CN(C(=S)SCc2nc(N)nc(Nc3ccccc3)n2)C1 (centres undefined)
→ 2.8, -13.9%[15.4 µM], 9.8%, 0.8%, 13.8%, 64.0[activator], .
- Oc1ccc2ccccc2c1/C=N/c1nccs1
→ -1.0, -1.2%, -0.8%, 10.1%, ?, -0.2, -5.0%
- CC(=O)Nc1ccc(S(=O)(=O)Nc2cccn(Cc3ccc(C)cc3)c2=O)cc1
→ -0.3, -26.4%, 0.0%, -18.1%, 5.7%, -1.9, .
- CC1CCC2(CC1)NC(=O)N(NC(=O)CCl)C2=O (centres undefined)
→ -1.1, 2.1%[15.4 µM], 2.5%, 8.0%, 18.3%, -2.1, .
- C=CCNc1nc(C(=O)OCC(=O)Nc2c(Cl)cccc2C(F)(F)F)cs1
→ 2.2, 1.7%, -0.6%, 4.3%, ., ., -3.5%
- COC(=O)C(C#N)(CCC(=O)c1ccccc1)CCC(=O)c1ccccc1
→ -1.7, ., 0.1%, ., ., ., 1.8%
- COc1ccc(S(=O)(=O)N2CCN(Cc3cc(=O)n4ccccc4n3)CC2)cc1
→ -2.4, 11.9%, -0.2%, 2.2%, ., ., -6.5%
- CC1=CC(C)(C)NC(=S)N1c1ccccc1C
→ -1.2&-4.2, -0.4%, 2.8%&1.6%, 1.4%&5.0%, -3.4%, -0.7, -1.1%
- CCN(CC(=O)NCc1ccc(Cl)cc1)C(=O)CCc1ccccc1
→ -0.1, 7.9%, -1.1%, 7.0%, 18.4%, 7.1, -0.6%
- COc1ccc(S(=O)(=O)N2CCN(C3Cc4ccccc4C3)CC2)cc1
→ -1.3, 3.1%, 1.2%, 5.3%, 2.2%, 5.8, 3.6%
- c1ccc(C(CN2CCCCC2)Oc2ccccn2)cc1 (centres undefined)
→ -2.6, ?, 0.3%, 6.1%, ., ., .
- COc1ccc(S(=O)(=O)N2CCCN(CC(=O)Nc3ccc4c(c3)OCO4)CC2)cc1
→ 0.6, -6.3%, -1.2%, -9.5%, -0.5%, 2.2, -3.4%
- CN(C)C(=O)/C(=C/c1ccc(-c2cccc([N+](=O)[O-])c2)o1)NC(=O)c1ccccc1
→ -0.3, 12.1%[15.4 µM], -0.5%, ?, 1.6%, -3.4, 8.8%
- NC1=C(c2ccc(F)cc2)C(=O)CS1
→ -1.3, 8.5%, -2.0%, 1.9%, 79.4µM*, 5.3, -1.8%
